Autofluor counter: counter-screen for toxin protease inhibitors: compound fluorescence; compound autofluorescence counterscreen, microsphere flow cytometry; active compounds read high; fluorescence intensity (test concentration not listed); 3.1% of 360,000 active; AID 624483;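 active = at least 3 SD above the mean of all compounds, about 16000 in these data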;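 note: 100 nL of 1 mM stock went into each well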
PrP UTR inh: inhibition of PrP 5' UTR reporter expression. 0.35% of 340,000 active. AID 488862. cell-based PrP 5' UTR mRNA reporter, plate reader. inhibition, % (test concentration not listed);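 active = every replicate at 50% or more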;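 note: 0 = median of the neutral control wells; tested in H4 reporter cells; numbers are from one replicate; inactives centre near -14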
* hit, by the source's call. The list is partial. The share of hits here may be higher or lower than overall.

Start of the data: the first 7 compounds, to show the layout:
`COc1ccc(NC(=O)Cc2ccsc2)cc1S(=O)(=O)N1CCOCC1` gave Autofluor counter 3737 and PrP UTR inh -15.
`S=C(NCc1ccccn1)NN=Cc1ccccn1` gave Autofluor counter 2983 and PrP UTR inh 10.
`CCCSc1ccc([C@@H]2[C@H]3C(=O)N(CC)C(=O)[C@H]3[C@]3(C(=O)OC)CCCN23)cc1` gave Autofluor counter 3332 and PrP UTR inh -4.
For Cc1ccc(-c2cc(C(=O)N/N=C/c3ccc([N+](=O)[O-])o3)c3ccccc3n2)o1 the results were Autofluor counter 5195 and PrP UTR inh -42.
For COc1ccc(Nc2nnc(-c3ccc(N4CCOCC4)c([N+](=O)[O-])c3)c3ccccc23)cc1 the results were Autofluor counter 22975* and PrP UTR inh -16.
`CNC[C@H]1Oc2c(NS(=O)(=O)c3ccccc3)cccc2C(=O)N([C@H](C)CO)C[C@@H]1C` gave Autofluor counter 3437 and PrP UTR inh -24.
Screening CN(CC(=O)Nc1cc(C(F)(F)F)ccc1-n1cncn1)Cc1ccccc1N1CCOCC1 returned Autofluor counter 3460 and PrP UTR inh -14.

Main list, previewed entries included:
`COc1ccc(NC(=O)Cc2ccsc2)cc1S(=O)(=O)N1CCOCC1` gave Autofluor counter 3737 and PrP UTR inh -15.
`S=C(NCc1ccccn1)NN=Cc1ccccn1` gave Autofluor counter 2983 and PrP UTR inh 10.
`CCCSc1ccc([C@@H]2[C@H]3C(=O)N(CC)C(=O)[C@H]3[C@]3(C(=O)OC)CCCN23)cc1` gave Autofluor counter 3332 and PrP UTR inh -4.
For Cc1ccc(-c2cc(C(=O)N/N=C/c3ccc([N+](=O)[O-])o3)c3ccccc3n2)o1 the results were Autofluor counter 5195 and PrP UTR inh -42.
For COc1ccc(Nc2nnc(-c3ccc(N4CCOCC4)c([N+](=O)[O-])c3)c3ccccc23)cc1 the results were Autofluor counter 22975* and PrP UTR inh -16.
`CNC[C@H]1Oc2c(NS(=O)(=O)c3ccccc3)cccc2C(=O)N([C@H](C)CO)C[C@@H]1C` gave Autofluor counter 3437 and PrP UTR inh -24.
Screening CN(CC(=O)Nc1cc(C(F)(F)F)ccc1-n1cncn1)Cc1ccccc1N1CCOCC1 returned Autofluor counter 3460 and PrP UTR inh -14.
Screening CC(C)(C)OC(=O)N1CCCC(C(=O)Nc2cccc(C(=O)NCCc3ccccc3)c2)C1 (configuration not stated) returned Autofluor counter 2967 and PrP UTR inh -11.
`CCC(=O)OCOc1ccc(/C=C2/CCC(CN(C)C)C2=O)cc1` (configuration not stated) gave Autofluor counter 2900 and PrP UTR inh -26.
`O=C1O[C@H](CO)[C@@H](O)[C@H](O)[C@H]1O` gave Autofluor counter 5283 and PrP UTR inh -10.
`CC[C@@H](C(=O)[C@@H](C)[C@@H](O)[C@H](C)[C@@H]1O[C@@H]([C@@H](CC)C(=O)O)CC[C@@H]1C)[C@H]1O[C@]2(C=C[C@@H](O)[C@]3(CC[C@@](C)([C@H]4CC[C@](O)(CC)[C@H](C)O4)O3)O2)[C@H](C)C[C@@H]1C` gave Autofluor counter 6148 and PrP UTR inh 0.
For CC(=O)N1c2ccc(F)c(F)c2C[C@H]1C the results were Autofluor counter 2976 and PrP UTR inh -1.
`COC(=O)C1=C(c2ccc(OC(F)(F)F)cc2)C[C@@H]2CC[C@H]1N2C(=O)NCCO` gave Autofluor counter 3516 and PrP UTR inh -21.
`Cc1ccc(NC(=O)c2ncn(CCCN3CCN(c4ccccn4)CC3)n2)cc1C` gave Autofluor counter 3431 and PrP UTR inh -5.
For CCN(CC)c1ccc(/C=N/Nc2ccc(C)cc2)c(O)c1 the results were Autofluor counter 2438 and PrP UTR inh -24.
Screening COc1cc(/C=c2\sc3n(c2=O)C(c2ccccc2)C(c2ccccc2)=NN=3)ccc1O (configuration not stated) returned Autofluor counter 4404 and PrP UTR inh -4.
Screening COc1ccc(C(=O)NCC(=O)OCC(=O)c2c(C)[nH]c3ccccc23)cc1OC returned Autofluor counter 4232 and PrP UTR inh -13.
`CCC1CN2CCc3cc(OC)c(OC)cc3C2CC1CC1NCCc2c1[nH]c1ccc(O)cc21` (configuration not stated) gave Autofluor counter 3677 and PrP UTR inh 82*.
Screening CC[C@H](C)[C@H]1CNC(=O)C(=O)N1CC1CCN(CCCc2ccc(OC)c(OC)c2)CC1 returned Autofluor counter 2989 and PrP UTR inh -4.
CN(C)C1CCN(Cc2cc(COCc3ccccc3)c3cccnc3c2O)C1 (configuration not stated) was read as Autofluor counter 3760 and PrP UTR inh 14.
For O=C1[C@H](Cc2ccccc2)NCC=CC[C@H](c2ccc(Cl)cc2)N1Cc1ccccc1 the results were Autofluor counter 4204 and PrP UTR inh 0.
C#CCOCCOCCOCCNc1nc(N2CCN(C(=O)Cn3cc(CCCCN)nn3)CC2)nc(N2CCN(C(=O)[C@H](CCCCN)n3cc(CCC(=O)O)nn3)CC2)n1 was read as Autofluor counter 3806 and PrP UTR inh -5.
Screening Nc1ccc(-c2c3ccc(=O)cc-3oc3cc(O)ccc23)c(C(=O)O)c1 returned Autofluor counter 2872 and PrP UTR inh -2.
Screening CC(C)C[C@@H]1NC(=O)[C@H](Cc2ccc(O)cc2)NC(=O)c2cc([N+](=O)[O-])cc(I)c2NCCC[C@@H](C(N)=O)NC1=O returned Autofluor counter 4297 and PrP UTR inh -16.
C=CC[C@@H](CC(=O)OC(C)(C)C)C(=O)OC[C@@H]1CCCN1C(=O)[C@@H](CC=C)CC(=O)N[C@@H](CO)Cc1ccccc1 was read as Autofluor counter 3400 and PrP UTR inh -10.
Screening NC(=O)N/N=C/c1ccc([N+](=O)[O-])o1 returned Autofluor counter 6424 and PrP UTR inh -5.
Screening C#CCCc1cocc1/C=[N+](\[O-])c1ccc(C(=O)OCC)cc1 returned Autofluor counter 3168 and PrP UTR inh 11.
For O=S(=O)(NCCc1c[nH]c2ccccc12)c1ccc(F)cc1 the results were Autofluor counter 4065 and PrP UTR inh -20.
CCN(CC)c1ccc(/C=C(\C#N)C(N)=O)cc1 was read as Autofluor counter 3306 and PrP UTR inh -8.
O=C(C[C@@H]1C/C=C\CCCC(=O)OC[C@@H]2CCCN2C1=O)N[C@@H](CO)Cc1ccccc1 was read as Autofluor counter 3436 and PrP UTR inh -32.
CC[C@]12C(=O)N(C)C[C@H]([C@@H]3C(=O)N(Cc4ccccc4)C(=O)[C@@H]31)N2C(=O)c1ccc(F)cc1 was read as Autofluor counter 3769 and PrP UTR inh -4.
Screening COc1cc2oc(=O)cc(-c3ccc(-c4ccc(C#N)cc4)cc3)c2c(OC)c1OC returned Autofluor counter 2968 and PrP UTR inh -3.
Screening N#CC1(C#N)OC12CCS(=O)(=O)c1ccccc12 (configuration not stated) returned Autofluor counter 4068 and PrP UTR inh -3.
c1ccc(CCc2ccc3n2Cc2cnnn2-c2ccccc2-3)cc1 was read as Autofluor counter 3905 and PrP UTR inh 4.
Screening CC(=O)Nc1ccc(C=NNc2nnc(NN=Cc3ccc(NC(C)=O)cc3)c3ccccc23)cc1 returned Autofluor counter 3060 and PrP UTR inh 30.
For CCCN(C(=O)CSc1ncnc2sccc12)c1c(N)n(Cc2ccccc2)c(=O)[nH]c1=O the results were Autofluor counter 3678 and PrP UTR inh -27.
COc1ccccc1-c1cccc([C@@H]2C[C@H]3[C@H](CON3C)CN2C(C)=O)c1 was read as Autofluor counter 2947 and PrP UTR inh -13.
Screening N#CC1c2ccccc2-n2nncc2CN1Cc1cc(Cl)cc(Cl)c1 (configuration not stated) returned Autofluor counter 3543 and PrP UTR inh 33.
Cc1ccc(NC(=O)C/C(N)=N/OC(=O)Nc2ccc(C)c(Cl)c2)cc1 was read as Autofluor counter 3242 and PrP UTR inh -22.
Screening CCOC(=O)c1cc2c(c(CCO)n1)[C@H](CCO)N(S(=O)C(C)(C)C)C2 (some centres not stated) returned Autofluor counter 4044 and PrP UTR inh -10.
For CC(C)C[C@@H](CNCC(=O)[C@H](Cc1ccccc1)NC(=O)c1[nH]cnc1C(=O)N[C@@H](C)CN)NC(=O)c1nc[nH]c1C(=O)N[C@@H](CC(=O)O)C(=O)O the results were Autofluor counter 4098 and PrP UTR inh -5.
For Cc1ccc(C)c(C(C)NC(=O)C2CC=CCC2C(=O)O)c1 (configuration not stated) the results were Autofluor counter 3846 and PrP UTR inh -10.
Cc1ccc(S(=O)(=O)N2CCN(C(=O)CN(Cc3ccco3)Cc3cccs3)CC2)cc1 was read as Autofluor counter 2871 and PrP UTR inh 5.
CN(C)CC1CC/C(=C\c2ccc(O)cc2)C1=O (configuration not stated) was read as Autofluor counter 3805 and PrP UTR inh -60.
CC(=O)C[C@H](O)CC(=O)[C@H]1OC(=O)CCCCCCCCc2ccccc21 was read as Autofluor counter 4158 and PrP UTR inh -1.
Screening O=C(NCCNCC(O)COc1ccc(O)cc1)N1CCOCC1 (configuration not stated) returned Autofluor counter 5167 and PrP UTR inh -4.
For COCc1cccc(C2=CC(=O)C[C@H](c3ccc(OC)cc3)C2)c1 the results were Autofluor counter 4630 and PrP UTR inh -30.
For O=C1NC(=S)NC(=O)C1Cc1ccccc1 the results were Autofluor counter 2951 and PrP UTR inh -13.
Screening COC(=O)[C@]1(Cc2ccccc2)N[C@H](CN(C)C(=O)Nc2ccc(C(F)(F)F)cc2)[C@@H]2C(=O)N(C)C(=O)[C@@H]21 returned Autofluor counter 2928 and PrP UTR inh -7.
Screening N/C(=N\OC(=O)C1CCCCC1)c1cccc([N+](=O)[O-])c1 returned Autofluor counter 11716 and PrP UTR inh -47.
`C=CCC[C@@H](Cc1ccc(F)cc1)C(=O)OC[C@H](Cc1c[nH]c2ccccc12)NC(=O)[C@@H](CC=C)CC(=O)NCCO` gave Autofluor counter 3933 and PrP UTR inh -14.
For C#CCOCCOCCOCCNc1nc(N2CCN(C(=O)Cn3cc(CCCCN)nn3)CC2)nc(N2CCN(C(=O)[C@H](C)n3cc(CCC(=O)O)nn3)CC2)n1 the results were Autofluor counter 3826 and PrP UTR inh -23.
C[C@H](NC(=O)c1[nH]cnc1C(=O)Nc1nccs1)c1ccccc1 was read as Autofluor counter 4085 and PrP UTR inh -18.
For Cc1cccc(NS(=O)(=O)c2cccc(C(=O)NNC(=O)c3ccccc3O)c2)c1 the results were Autofluor counter 3514 and PrP UTR inh -6.
CN1C(=O)[C@H]2[C@@H](/C=C/c3ccccc3)N3C(=O)CN(Cc4ccccn4)C(=O)[C@@]3(Cc3ccccc3)[C@H]2C1=O was read as Autofluor counter 3909 and PrP UTR inh -8.
`CCOC(=O)[C@@H]1[C@H]2COc3cc(OC)ccc3[C@H]2N2C(=O)N(c3ccc(Br)cc3)C(=O)[C@]12C` gave Autofluor counter 4184 and PrP UTR inh -8.
COC(=O)C1=C(c2ccc(OCc3ccccc3)cc2)C[C@@H]2CC[C@H]1N2C(=O)NCCN1CCOCC1 was read as Autofluor counter 2801 and PrP UTR inh -16.
COc1ccc(/C=N\NC(=O)c2cc3c(ccc4ccccc43)o2)cc1O was read as Autofluor counter 6173 and PrP UTR inh 5.
`N=c1c2ccccc2nnn1-c1ccccc1[N+](=O)[O-]` gave Autofluor counter 2983 and PrP UTR inh -42.
Cn1nnnc1Sc1ncnc2scc(-c3cc4ccccc4o3)c12 was read as Autofluor counter 3324 and PrP UTR inh -18.
`CC(C)(C)OC(=O)C[C@H]1C/C=C\C[C@H](CC(=O)N[C@H](CO)Cc2ccccc2)C(=O)N[C@@H](Cc2ccccc2)COC1=O` gave Autofluor counter 3783 and PrP UTR inh -4.
`CCN(C(=O)CSc1nnc(SC(C)C)s1)C1CCS(=O)(=O)C1` (configuration not stated) gave Autofluor counter 3948 and PrP UTR inh -11.
CCC(=NN=C(CC)c1ccccc1O)c1ccccc1O was read as Autofluor counter 4009 and PrP UTR inh -8.
Screening O=C(C[C@@H]1C/C=C\C[C@H](NC(=O)OCC2c3ccccc3-c3ccccc32)C(=O)OC[C@@H]2CCCN2C1=O)NCCO returned Autofluor counter 3500 and PrP UTR inh -9.
`C[C@@H]1CN([C@@H](C)CO)C(=O)c2cc(NC(=O)C3CC3)ccc2O[C@H]1CN(C)C` gave Autofluor counter 3190 and PrP UTR inh -2.
Screening Cc1ccc(S(=O)(=O)N2[C@@H](c3ccc(F)cc3)C(C(=O)O)=CC[C@H]2c2cccc(Cl)c2)cc1 returned Autofluor counter 4130 and PrP UTR inh -11.
Screening C[C@@H](NC(=O)c1nc[nH]c1C(=O)N1CCN(c2ccccc2)CC1)c1ccccc1 returned Autofluor counter 3825 and PrP UTR inh -18.
Screening CC(C)(C)OC(=O)N1CCC(C(=O)Nc2cccc(C(=O)NC3CC3)c2)CC1 returned Autofluor counter 3625 and PrP UTR inh -22.
`C#CCOCCOCCOCCNc1nc(N2CCN(C(=O)[C@H]([C@@H](C)CC)n3cc(CCC(=O)O)nn3)CC2)nc(N2CCN(C(=O)[C@H](Cc3ccc(O)cc3)n3cc(CCO)nn3)CC2)n1` gave Autofluor counter 3650 and PrP UTR inh -13.
COc1cc([C@H]2OC[C@H]3[C@@H]2CO[C@@H]3c2cc(OC)c(O[C@@H]3O[C@H](CO)[C@@H](O)[C@H](O)[C@H]3O)c(OC)c2)cc(OC)c1O[C@H]1O[C@@H](CO)[C@H](O)[C@@H](O)[C@@H]1O was read as Autofluor counter 4041 and PrP UTR inh -20.
